Bioassay records as filed in PubChem.
VDR inh = blocks the human vitamin D receptor; VDR-SRC2-3 peptide fluorescence polarization, 2 h; P11473; actives 0.93% (n = 400,000); Potency, µM, inactives show max response, negative = inhibition, actives largely listed as inhibitors; active = well fitted inhibition curve with a large enough effect; inconclusive = small, poorly fitted or top-dose-only effect, or another doubt; inactive = no such curve, though single readings can be large or run the other way; note: series mostly up to about 120 µM
Target sequence (P11473 whole entry, looked up): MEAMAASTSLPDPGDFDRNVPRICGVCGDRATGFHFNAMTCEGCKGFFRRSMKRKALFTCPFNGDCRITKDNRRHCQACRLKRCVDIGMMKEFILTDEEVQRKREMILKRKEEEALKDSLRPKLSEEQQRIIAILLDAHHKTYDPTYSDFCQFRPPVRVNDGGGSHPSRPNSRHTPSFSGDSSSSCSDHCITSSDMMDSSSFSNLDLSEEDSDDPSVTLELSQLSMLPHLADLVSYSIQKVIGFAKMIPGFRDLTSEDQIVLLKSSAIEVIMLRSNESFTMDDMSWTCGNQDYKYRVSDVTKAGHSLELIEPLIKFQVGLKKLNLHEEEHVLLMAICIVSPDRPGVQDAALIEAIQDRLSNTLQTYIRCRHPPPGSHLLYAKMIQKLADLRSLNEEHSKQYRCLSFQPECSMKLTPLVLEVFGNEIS
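Measured by FP: displacement of SRC2-3 coactivator peptide from VDR by library compounds, following a two-hour ambient incubation.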
* hit, by the source's call; ? = inconclusive; & = joins results of further samples. % is set by controls: 0 for no effect and ±100 for the full control effect; potency is the fitted concentration of half-maximal effect. The list is partial, so the mix of outcomes need not match the whole.

VDR inh | smiles
3% | COc1ccc2cc(C(=O)NCc3ccc4c(c3)CCN4C(=O)c3ccccc3)[nH]c2c1
5% | CCN1CCN(CCC(=O)Nc2cccc(C)c2)CC1
9% | CC(=O)OCC(=O)[C@@]1(O)[C@H](OC(C)=O)C[C@H]2[C@@H]3CCC4=CC(=O)C=C[C@]4(C)[C@@]3(F)[C@@H](O)C[C@@]21C
10% | Cc1ccc(C(=O)NCN2CCN(c3ccc(F)cc3)CC2)cc1
2% | Cc1[nH]c2ccccc2c1C(C[N+](=O)[O-])c1cccs1 (configuration not stated)
9% | CCS(=O)(=O)N1CCc2cc(C(=O)Nc3cc(Cl)ccc3C)ccc21
12% | COc1ccc(NC(=O)C(=O)NCCC2CCCCN2S(=O)(=O)c2ccc(F)cc2)cc1 (configuration not stated)
16% | CC12CC3(C)CC(C)(C1)CC(C(=O)NC1=NCCS1)(C2)C3
-16% | CC(C)Nc1nc(Cl)nc(N(C#N)CN2C(=O)c3ccccc3C2=O)n1
-4% | O=C(Nc1ccc2c(c1)nc1n2CCSC1)c1ccccc1
4% | CCN(C(=O)COC(=O)c1ccc(-n2c(C)ccc2C)cc1)c1c(N)n(Cc2ccccc2)c(=O)[nH]c1=O
-10% | COc1ccc(C2CC(c3ccccc3)=NN2c2ccc(Cl)c(C(=O)O)c2)cc1 (configuration not stated)
5% | O=C(NCCC1CCCCN1S(=O)(=O)c1ccccc1)C(=O)NC1CC1 (configuration not stated)
-12% | c1ccc2c(c1)nc1sccn12
-8% | Cn1c(=O)n(C)c2cc(N3CCCCC3)c(NC(=O)c3ccccc3)cc21
19% | COC(=O)[C@]1(C)N[C@H](CN(C)S(=O)(=O)c2ccc(C)cc2)[C@@H]2C(=O)N(Cc3ccccc3)C(=O)[C@@H]21
-5% | COC(=O)C(CCSC)NC(=O)c1cc2c(n(-c3ccc(C)cc3)c1=O)CC(C)(C)CC2=O (configuration not stated)
-2% | COc1ccc(-n2c(-c3ccc(Br)cc3)c[n+]3c2CCc2ccccc2-3)cc1
4% | CCCC(=O)NC(=S)Nc1cc(-c2nc3ncccc3o2)ccc1C
-9% | O=C1CC(c2ccccc2)n2nc(NC(=O)C3CCCO3)nc2N1 (configuration not stated)
-23% | CC(C)CC(=O)Nc1c2c(nn1-c1cccc(Cl)c1)CS(=O)C2 (configuration not stated)
-5% | CC1CCC2(CC1)NC(=O)N(CC(=O)Nc1cccc(S(=O)(=O)N3CCOCC3)c1)C2=O (configuration not stated)
10% | Cc1ccc(S(=O)(=O)CCC(=O)OC(C)C(=O)c2c(C)[nH]c3ccccc23)cc1 (configuration not stated)
? | CC(C)(C)Cc1nnc(NC(=O)c2ccc3c(c2)OCO3)s1
5% | COc1ccc(S(=O)(=O)N2CCOCC2)cc1NC(=O)CSc1n[nH]c(=O)n1C1CC1
-3% | O=C(N/N=C/c1ccc(Cl)c([N+](=O)[O-])c1)c1cc(-c2ccccc2)nc2ccccc12
-16% | CC(NC(=O)COC(=O)C1CCCCC1)c1ccccc1 (configuration not stated)
-8% | C=C(C)c1cccc(C(C)(C)NC(=O)N2CCCC(C(N)=O)C2)c1 (configuration not stated)
22% | COc1cccc(C(=O)Nc2cccc(S(=O)(=O)NC3=NCCC3)c2)c1
2% | CNC(=O)c1cc2c(n(-c3ccc(C)cc3)c1=O)CC(C)(C)CC2=O
-11% | CCN1CCN(C(=O)c2cc(-c3ccco3)nc3ccccc23)CC1
13% | Cc1ccc2cc(CN(Cc3ccco3)C(=O)NC3CCCCC3)c(=O)[nH]c2c1C
11% | CC(=O)Nc1cccc(C(=O)NCc2ccc3c(c2)CCN3C(=O)c2ccccc2)c1
-14% | Cc1ccccc1OCC(=O)OCC(=O)Nc1cc(S(C)(=O)=O)ccc1Cl
1% | CCOC(=O)c1cnc(SCc2nc(N)nc(Nc3ccc(OC)cc3)n2)nc1N
-7% | Cc1ccccc1C(=O)Oc1ccc(Cl)cc1C(=S)N1CCOCC1
-11% | O=C(O)CCn1nc(-c2ccc(F)cc2)cc(Cc2ccccc2)c1=O
-23% | O=C(NCCCN1CCCC1=O)c1c(O)nc2ccccn2c1=O
0% | CC(NC(=O)NC(N)=O)(C(F)(F)F)C(F)(F)F
5% | Clc1ccc(C(CCN2CCCC2)Cc2ccccc2)cc1 (configuration not stated)
2% | CCc1nnc2n1N=C(c1cccc([N+](=O)[O-])c1)CS2
-22% | Cc1scc(C(=O)NNC(=S)NCC2CCCO2)c1-c1ccccc1 (configuration not stated)
2% | CSc1ncccc1C(=O)NC1CCCCCCC1
-10% | CCOc1ccc(/C(O)=C2/C(=O)C(=O)N(CCN(CC)CC)C2c2cccs2)cc1 (configuration not stated)
4% | CC(=O)Nc1sc2c(c1C(N)=O)CCCC2
-3% | CCc1nc(N2CCN(C(=S)NCCCOC)CC2)c2c3c(sc2n1)CCCC3
4% | Cc1nnc(SCCn2c(N3CCC(Cc4ccccc4)CC3)nc3c2c(=O)[nH]c(=O)n3C)s1
16% | O=C(Nc1ccccc1C(=O)N1CCCC1)c1ccccc1
0% | CSCCC(NC(=O)C1CCC(C)CC1)C(=O)NCc1ccco1 (configuration not stated)
-15% | COc1ccc(OC)c(C2CC(=O)c3c([nH]c(C(=O)OCc4ccc(C)cc4)c3C)C2)c1 (configuration not stated)
22% | Cc1ccc(NC(=S)Nc2cccc3ccccc23)cc1
-3% | CN(C)C(=O)CNC(=O)C1CCCCC1
-5% | COc1ccc(N2CCN(C(=O)CSc3nc4[nH]ncc4c(=O)n3-c3ccc(Br)cc3)CC2)cc1
-10% | COc1ccc(-n2nnnc2SCC(=O)Nc2ccccc2)cc1
4% | CNC(=S)SCCOc1ccccc1C
35µM* | CCn1c(SC)nc(O)c(C(c2ccc(OC)c(O)c2)c2c(O)nc(SC)n(CC)c2=O)c1=O
13% | FC(F)(F)c1ccc(CN2C[C@@H]3C(c4ccc(Cl)nc4)C4(c5ccccc5)CC3(C4)[C@H]2c2ccccc2)cc1 (some centres not stated)
5% | COc1ccc(-n2c(=O)c(C)nc3cnc(OC)nc32)cc1
-20% | c1ccc(-c2nccc3ccccc23)cc1
8% | O=C1c2cccc3cccc(c23)C(=O)N1c1cccc(O)c1

2 entries from above in a different format.
SMILES: COc1ccc(OC)c(C2CC(=O)c3c([nH]c(C(=O)OCc4ccc(C)cc4)c3C)C2)c1 (configuration not stated)
  VDR inh: -15%
SMILES: CCOC(=O)c1cnc(SCc2nc(N)nc(Nc3ccc(OC)cc3)n2)nc1N
  VDR inh: 1%

New compounds follow.
VDR inh | smiles
11% | CC(C)(C)NC(=O)CN(Cc1cccs1)C(=O)CCC(=O)Nc1nccs1
5% | O=C(CN1CCN(C(c2ccccc2)c2ccccc2)CC1)N1N=CCC1c1ccccc1 (configuration not stated)
-8%&3% | COc1cc(OC)c2c(-c3ccccc3)cc(=O)oc2c1C(CC(=O)N1CCOCC1)c1ccc2c(c1)OCO2 (configuration not stated)
-5% | O=C(CCSc1nc(-c2ccco2)cc(C(F)(F)F)n1)N1CCN(c2ccccn2)CC1
19% | COc1ccc(C2=NN(CCC(=O)NC3CCCCCC3)C(=O)CC2)cc1
5% | C=C(C)C(=O)OCCO
17% | COCCCNc1ccnc2c(Cl)cccc12
6% | COc1ccc(CNC(=O)C(=O)NCC(c2ccc3c(c2)OCO3)N2CCOCC2)cc1 (configuration not stated)
-22% | CCOc1ncccc1C(=O)Oc1ccc2c(c1)OCO2
-10% | Cc1ccc(-n2nnnc2SCC(=O)Nc2cc(C)on2)c(C)c1
-20% | O=C(COC(=O)/C=C/c1ccc(Cl)cc1Cl)Nc1ccc2c(c1)OCCO2
7% | CNc1ncncc1-c1ccc(C(=O)N(C)C)cc1
9% | O=C(CN1CCOCC1)c1c[nH]c2ccccc12
? | CC(=O)N1CC=C2C(C#N)=C(N)C(C#N)(C#N)C(CCc3ccccc3)C2C1 (configuration not stated)
8% | CCOC(=O)c1sc2nc(C)nc(SCC(=O)NC3CCS(=O)(=O)C3)c2c1C (configuration not stated)
-22% | CC(C)=CCc1c(O)cc2occ(-c3ccc4c(c3)OCO4)c(=O)c2c1O
? | COc1cc(OC)c(Nc2nc3ccc(C(=O)c4ccccc4)cc3n3c(C)nnc23)cc1Cl
-14% | CCN1C(=O)[C@H]2[C@@H](c3ccc(C)cc3)N3C(=O)N(c4cccc(F)c4)C(=O)[C@@]3(Cc3ccc(Cl)cc3)[C@H]2C1=O
-9% | Cc1cc(=O)oc2cc(OCC(=O)NCCc3nc4ccccc4[nH]3)ccc12
5% | Cc1ccc(NC2=C(c3ccc(C(F)(F)F)cc3)C(=O)c3ccccc32)cc1F
3% | CCc1cc(=O)oc2cc(C)cc(OC(C)C(=O)NCCCN3CCCC3=O)c12 (configuration not stated)
-3% | Cc1ccc(C)c(OCC(=O)Nc2cccc(C(=O)O)c2)c1C
-2% | O=C(NCC(O)c1ccc2ccccc2c1)c1c(F)cccc1F (configuration not stated)
-15% | CC(C)(C)N(C(=O)Cn1nnc(-c2ccc(F)cc2)n1)C(C(=O)NC1CCCC1)c1ccncc1 (configuration not stated)
12% | O=C(Nc1ccc(OC(F)(F)F)cc1)c1ccc(-n2cncn2)nc1
12% | COc1ccc(C2CC(=O)Nc3c2c(=O)nc2c(C)cccn32)cc1OC (configuration not stated)
4% | CC1CCN(C(c2ccccc2)c2sc3nc(-c4ccco4)nn3c2O)CC1 (configuration not stated)
-6% | CCOC(=O)CSc1nnc(CNC(=O)c2ccc(OC)c(OC)c2)n1C
-11% | O=C(COc1ccc(F)cc1Cl)N1CCN(C(=O)c2cccs2)CC1
14% | Cc1cc(-c2ccccc2N)n[nH]1
6% | CCOc1cc(N2CCOCC2)c(OCC)cc1NC(=O)COc1cccc(Cl)c1
1% | O=c1cc(CSc2ccccn2)[nH]c(=O)[nH]1
8% | COc1ccc(N(C)C(=O)c2nn(-c3ccc(C)cc3)c(=O)n(C)c2=O)c(OC)c1
7% | COC(=O)c1[nH]c2cc(OC)ccc2c1NC(=O)CCN1CCN(c2ccccc2)CC1
-11% | O=C1N(Nc2ccccc2)C(c2ccc(Br)cc2)C12CCCC2 (configuration not stated)
4% | COC(=O)c1cn(Nc2ncc(C(F)(F)F)cc2Cl)c(=O)c2ccccc12
-26% | O=C(NCCc1c[nH]c2ccccc12)c1cc2ccccc2oc1=O
7% | C/C(=N\NC(=O)c1cccc(O)c1)c1ccc(NC(=O)Cc2ccccc2)cc1
-26% | Cc1ccc(S(=O)(=O)Nc2cccc(C(=O)N3CCC(C(N)=O)CC3)c2)cc1
-24% | O=C(NC(=S)Nc1ccc(N2CCCCC2)c(Cl)c1)c1ccc2c(c1)OCCO2
2% | Nc1c(C(=O)Nc2ccccc2)sc2nc(-c3ccco3)ccc12
-8% | CCOC(=O)c1ccc(Oc2cc(C)nc(SC)n2)cc1
-4% | CCOC(=O)C1CCN(C(=O)Nc2ccc3c(c2)nc(C)n3C)CC1
-4% | COc1ccc(CNC(=O)c2cc(SC)ccc2Cl)cc1OC
10% | CCOc1ccc(NS(=O)(=O)c2ccc(OC)c(NC(=O)c3ccc4c(c3)OCCO4)c2)cc1
-7% | C=CCN1CCN(C(c2ccc(Cl)cc2)c2nnnn2CCc2ccc(OC)c(OC)c2)CC1 (configuration not stated)
-24% | O=C(NCCN1CCOCC1)c1cc(Cl)ccc1Cl
-2% | O=C(Nc1cccc(S(=O)(=O)N2CCCCC2)c1)c1cnccn1
1% | COc1ccc(NC(=O)c2cc(S(=O)(=O)N3CCCCC3)ccc2OC)cc1
23% | C=CCN(C(=O)CN1CCCCC1)c1nc(-c2ccccc2)cs1
-24% | CC(C)Oc1ccc(C(=O)Nc2nnc(C3=COCCO3)o2)cc1
-11% | Cc1cc(CN(C)C(=O)c2cc(COc3ccc(F)cc3Cl)on2)n[nH]1
3% | Cc1ccc(NC(=O)NC2CCCCCCC2)cc1
22% | COc1ccc(CSc2nnnn2C)cc1[N+](=O)[O-]
-6% | C=CCC[C@@H](Cc1ccc(F)cc1)C(=O)OC[C@@H]1CCCN1C(=O)[C@H](CC=C)CC(=O)N[C@H](CO)Cc1ccccc1
-2% | O=C(NCCc1cccs1)C1CC(c2ccccc2[N+](=O)[O-])=NO1 (configuration not stated)
-2% | CCOc1ccc(NC(=O)CCc2nc3cccnc3n2Cc2ccc(OC)cc2)cc1
4% | Cc1cc(C(=O)Oc2cccnc2)ccc1[N+](=O)[O-]
-15% | O=C(O)CNC(=O)c1ccc(NC(=O)/C(=C/c2ccccc2)NC(=O)c2ccco2)cc1

Reformatted: results already given
canonical_smiles | VDR inh
C=CCN1CCN(C(c2ccc(Cl)cc2)c2nnnn2CCc2ccc(OC)c(OC)c2)CC1 (configuration not stated) | -7%
O=C(NCCN1CCOCC1)c1cc(Cl)ccc1Cl | -24%
O=C(Nc1cccc(S(=O)(=O)N2CCCCC2)c1)c1cnccn1 | -2%
COc1ccc(NC(=O)c2cc(S(=O)(=O)N3CCCCC3)ccc2OC)cc1 | 1%
C=CCN(C(=O)CN1CCCCC1)c1nc(-c2ccccc2)cs1 | 23%
CC(C)Oc1ccc(C(=O)Nc2nnc(C3=COCCO3)o2)cc1 | -24%
Cc1cc(CN(C)C(=O)c2cc(COc3ccc(F)cc3Cl)on2)n[nH]1 | -11%
Cc1ccc(NC(=O)NC2CCCCCCC2)cc1 | 3%
COc1ccc(CSc2nnnn2C)cc1[N+](=O)[O-] | 22%
C=CCC[C@@H](Cc1ccc(F)cc1)C(=O)OC[C@@H]1CCCN1C(=O)[C@H](CC=C)CC(=O)N[C@H](CO)Cc1ccccc1 | -6%
O=C(NCCc1cccs1)C1CC(c2ccccc2[N+](=O)[O-])=NO1 (configuration not stated) | -2%
CCOc1ccc(NC(=O)CCc2nc3cccnc3n2Cc2ccc(OC)cc2)cc1 | -2%
Cc1cc(C(=O)Oc2cccnc2)ccc1[N+](=O)[O-] | 4%
O=C(O)CNC(=O)c1ccc(NC(=O)/C(=C/c2ccccc2)NC(=O)c2ccco2)cc1 | -15%
